Screening results from PubChem BioAssay.
Arbovirus anti – antivirals against arbovirus infection, primary screen, cell-based, full library, 10K replicate subset. arbovirus infection cell-based antiviral screen. inhibition, % at 10 µM. hit rate 0.37% among 200,000;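 active = inhibition from about 30%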;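 note: bluetongue infection of BSR cells; cell survival read as ATP light after 72 h; 0% = infected wells without compound and 100% = uninfected wells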
RecA splice inh – Mtb RecA intein splicing inhibitors, primary screen, biochemical, fluorescence, HTS; Protein RecA (Mycobacterium tuberculosis (strain ATCC 25618 / H37Rv)), P9WHJ3; cell-free RecA intein splicing; inhibition, %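 (about 9 µM by stock and volumes)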; hit rate 0.75% among 290,000; AID 2221, 2009; in the data active = inhibition above about 30%; inconclusive = no clear call, values can overlap the other calls;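 note: 0% = vehicle wells and 100% = reference inhibitor control wells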
Target sequence (P9WHJ3 whole entry, looked up, canonical isoform): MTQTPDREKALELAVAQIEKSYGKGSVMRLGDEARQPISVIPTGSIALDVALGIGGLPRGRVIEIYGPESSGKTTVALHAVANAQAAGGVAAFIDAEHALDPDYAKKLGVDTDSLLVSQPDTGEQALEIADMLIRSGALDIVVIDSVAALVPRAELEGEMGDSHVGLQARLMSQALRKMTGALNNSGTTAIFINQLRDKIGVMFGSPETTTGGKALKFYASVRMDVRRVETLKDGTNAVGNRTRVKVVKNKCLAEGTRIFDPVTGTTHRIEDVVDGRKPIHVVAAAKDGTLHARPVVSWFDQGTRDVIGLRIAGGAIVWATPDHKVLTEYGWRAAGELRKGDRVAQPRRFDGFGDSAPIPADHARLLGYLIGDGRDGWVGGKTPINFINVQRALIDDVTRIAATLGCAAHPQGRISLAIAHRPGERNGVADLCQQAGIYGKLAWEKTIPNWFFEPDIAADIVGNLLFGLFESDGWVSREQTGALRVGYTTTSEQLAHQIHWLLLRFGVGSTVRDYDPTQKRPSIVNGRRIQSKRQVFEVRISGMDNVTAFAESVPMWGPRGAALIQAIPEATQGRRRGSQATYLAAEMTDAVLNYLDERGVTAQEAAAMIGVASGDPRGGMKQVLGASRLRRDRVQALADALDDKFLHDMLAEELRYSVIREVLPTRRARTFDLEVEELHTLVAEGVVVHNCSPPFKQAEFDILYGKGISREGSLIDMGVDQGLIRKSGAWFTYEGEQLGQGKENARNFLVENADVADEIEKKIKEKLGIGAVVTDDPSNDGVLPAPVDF
Mtb bLac sens – beta-lactam sensitization of Mtb H37Rv, H37Rv; M. tuberculosis H37Rv growth with meropenem, percent inhibition; hits of this screen are not shown here; AID 434955, 2010; hit rate 0.27% among 330,000; inhibition, % at 25 µM;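 active = about 74% or more and at least 40 points above the plate without the antibiotic, then above 30% in a dose series; inconclusive = first-round hits that could not be retested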;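 note: growth measured after seven days incubation then overnight dye step; 0% = bacteria only wells and 100% = bacteria with antibiotic; twin plates without the antibiotic show which effects depend on it; some results filed as inactive read as strong as hits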
Mtb H37Rv – M. tuberculosis H37Rv growth inhibitors, H37Rv strain (AID 1626); hit rate 0.95% among 220,000; inhibition, % at 10 µM; hits with a dose series show IC50 in µM; M. tuberculosis H37Rv growth inhibition; higher % means a stronger effect;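 active = confirmed in a dose series; inconclusive = inhibition above 80% but not taken into the dose series; inactive = below 80% or under 30% at every dose of the series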;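 note: bacteria incubated seven days before Alamar blue readout; 0% = bacteria only wells and 100% = bacteria with antibiotic wells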
YopH inh – YopH tyrosine phosphatase inhibitors, primary screen, biochemical, fluorescence Ex485/Em525; YopH tyrosine phosphatase [Yersinia enterocolitica]; inhibition, %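 (about 10 µM by stock and volumes)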; hit rate 0.16% among 140,000;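 active = inhibition of 50% or more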;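 note: controls were vehicle for no effect and minimum signal wells for full effect; inactives centre near -20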
Arbovirus anti repeat – further read-out of Arbovirus anti, marked with its call; inhibition, %; measured here: 10K subset replicate screen; many hits read low in the repeat;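 first of two repeat runs on a subset; 0% = infected and 100% = uninfected wells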
* marks the source's active call; other numbers are inactive results; ? = inconclusive; . = not tested or not shown.

SMILES	Arbovirus anti	RecA splice inh	Mtb bLac sens	Mtb H37Rv	YopH inh	others
O=C(Nc1ccc2c(c1)C(=O)N(c1ccccc1)C2=O)C1CCCO1 (configuration not stated)	7	5.8	-7	-6%	-11
Cc1oc2c(CN3CCCCC3)c(O)ccc2c(=O)c1-c1ccc(Br)cc1	.	-2.2	1	.	.
C=C1CCN(c2ccc(C(=O)NCCC)cc2[N+](=O)[O-])CC1	.	-0.2	-2	14%	.
O=C(CNCC1CCCO1)NCc1ccco1 (configuration not stated)	0	-0.2	-8	2%	.
CCOC(=O)N1CCN(C(=O)CN(c2ccc(C)c(C)c2)S(=O)(=O)c2ccccc2)CC1	-8	-1.4	3	-2%	-47
COc1ccc(C(=O)NN=C2CCCC2)c(OC)c1	.	4.3	-1	.	.
Nc1nc(=S)n(-c2ccccc2)[nH]1	3	1.4	-8	0%	.
Cc1cc(NC(C)c2ccccc2)n2ncc(-c3ccccc3)c2n1 (configuration not stated)	.	17	49	.	.
CC(C)(CO)Nc1ncnc2onc(-c3ccc(F)cc3)c12	.	0.1	7	.	.
CCc1ccccc1N1C(=O)CN(Cc2cc(OC)c(OC)c(OC)c2)C1=S	.	0.4	-1	.	.
CCC(C)NC(=O)c1ccccc1NS(=O)(=O)c1ccc(OC)c(OC)c1 (configuration not stated)	-1	3.9	-10	6%	-37
CCOc1ccccc1Nc1cc(C)nc2ccc(C)cc12	.	1.3	-4	.	.
CCOC(=O)/C=C/C(=O)OCC(=O)Nc1c(Cl)cccc1Cl	8	1.6	0	1%	.
C=CCOC(=O)c1cc(-c2ccc(/C=C3\C(=O)NC(=O)C(C#N)=C3C)o2)ccc1Cl	12	.	.	.	-9
COc1ccc(N=Nc2c(N)n[nH]c2N)cc1	.	0.7	42	-2%	.

The last two entries of the part before open the next one:
SMILES	Arbovirus anti	RecA splice inh	Mtb bLac sens	Mtb H37Rv	YopH inh	others
C=CCOC(=O)c1cc(-c2ccc(/C=C3\C(=O)NC(=O)C(C#N)=C3C)o2)ccc1Cl	12	.	.	.	-9
COc1ccc(N=Nc2c(N)n[nH]c2N)cc1	.	0.7	42	-2%	.
O=C(CC(c1ccccc1)c1ccccc1O)NCc1ccccc1Cl (configuration not stated)	-3	8.5	-3	1%	-12
COc1ccc(NC(=O)N2CCNC(=O)C2CC(=O)Nc2ccc(F)cc2)cc1 (configuration not stated)	.	2.0	-1	.	.
O=C(CSc1nnc(NC(=O)C2CCC2)s1)Nc1ccccc1F	.	-1.3	0	.	.
CC1(C)CC(=O)c2sc(NS(=O)(=O)c3ccc(Cl)cc3)nc2C1	.	0.1	2	.	.
CC#CC(=O)N1CCC(CO)(CCc2ccccc2)CC1	1	0.3	-9	-3%	.
CC1(C)Cc2c(c(N3CCOCC3)nc3sc(C#N)c(N)c23)CS1	1	5.2	2	3%	-1
COCCN(C(=O)CC1C(=O)NCCN1CC(c1ccccc1)c1ccccc1)C(C)C (configuration not stated)	-6	1.5	-1	1%	.
CSCCOC(=O)COc1ccc(/C=N/NC(=O)c2c(Cl)cnn2C)cc1	.	-2.4	98	28%	.
CC1(C)CC(=O)c2c(S(C)(=O)=O)sc(Br)c2C1	.	.	0	-6%	.
CC(C(=O)Nc1cccnc1)c1ccc([N+](=O)[O-])cc1 (configuration not stated)	6	-2.4	2	1%	.
Cn1c(=O)c2[nH]c(C3CCCC3)nc2n(C)c1=O	.	-0.8	1	2%	.
COc1ccc2c(c1OC)C(=O)N1c3ccccc3C(=O)N(c3ccccc3)C21 (configuration not stated)	0	0.5	-12	-1%	-6
O=C(O)CCC(=O)Nc1ccc(-n2ccc(C(F)(F)F)n2)cc1	.	-0.6	-5	-6%	.
Cn1nc(-c2ccccc2)nc1-c1ccccc1	.	2.5	-8	.	.
O=C(NNS(=O)(=O)c1cc(Cl)c(Cl)cc1Cl)c1cccnc1	.	-1.4	-13	.	.
Oc1cccc(/C=C/c2ccc3cccc(O)c3n2)c1	.	0.1	97	.	.
Oc1cccc(N2Cc3ccccc3C2)c1	.	3.1	-2	.	.
CC(=O)/C(C#N)=C1\NC(=O)C(Cc2ccc(C)c(C)c2)S1 (configuration not stated)	19	.	9	-4%	-22
CCOc1ccc(NC(=O)C[n+]2ccc(N(C)C)cc2)cc1	0	-1.3	-3	-9%	-7
O=c1c2ccccc2nc(-c2cccs2)n1-c1ccc2ccccc2c1	-3	5.4	1	3%	-13
Cc1cccc(NC(=O)CSCC(=O)Nc2cc(Cl)ccc2N2CCN(C)CC2)c1	.	1.3	-7	.	.
CCc1ccc(Nc2n[n+](-c3ccccc3)c(-c3ccc(N(CC)CC)cc3)s2)cc1	.	-21	100	.	.
Cc1ccc(C(=O)COC(=O)C(C)N2C(=O)C3C4CCC(C4)C3C2=O)cc1C (configuration not stated)	.	2.5	?	.	.
NC(=O)CSc1nnc(-c2ccccc2Br)n1-c1cccc(C(F)(F)F)c1	-2	1.0	-2	15%	-19
N#Cc1nc(COc2ccc(Br)cc2)oc1N1CCCCCC1	11	9.8	-7	8%	-1	Arbovirus anti repeat=-4
Cc1c(C#N)c2ccccc2n1CC(=O)NCCc1c[nH]c2ccccc12	1	0.3	-1	7%	-52	Arbovirus anti repeat=-9
CCOC(=O)C1(Cc2ccc(Cl)cc2)CCN(C(C)CCn2cccn2)CC1 (configuration not stated)	-8	1.6	-9	9%	.
Cc1cc(C)n(-c2cc(C(C)(C)C)nc3c(-c4ccc(Cl)cc4)cnn23)n1	-21	.	100	?	8
CC(C)(C)NC(=O)CSc1nnc(NC(=O)CCn2cnc3ccccc3c2=O)s1	9	1.3	-5	2%	-33
NC(=O)CC(NC(=O)Cc1ccc(Cl)cc1)c1ccc(N2CCC(Cc3ccccc3)CC2)c([N+](=O)[O-])c1 (configuration not stated)	.	-2.0	6	.	.
COc1ccccc1OCC(=O)NN=C(Cc1ccccc1)Cc1ccccc1	2	3.3	-9	-1%	-26
CC(C)(C)c1cc(-n2ccnc2)n2ncc(-c3ccc(Cl)cc3)c2n1	5	-2.3	8	7%	-28
CCC(C)NC(=O)c1c(N)n(/N=C/c2cccs2)c2nc3ccccc3nc12 (configuration not stated)	-17	.	.	-1%	-1
COc1ccc(C(=O)Nc2ccc(C3(C#N)CCCC3)cc2)cc1OC	.	2.8	6	.	.
Cc1ccccc1NC1=C(Cl)C(=O)N(C2CCCCC2)C1=O	9	-3.5	10	20%	-30
O=C(N/N=C\c1ccc(-c2ccc([N+](=O)[O-])cc2)o1)c1ccc2c(c1)OCO2	-13	-3.8	9	12%	-29
CCOC(=O)c1[nH]c2ccc(F)cc2c1NC(=O)CCN1CCOCC1	2	3.6	3	-2%	-29
Cc1ccc(C)c(N(CC(=O)NC2CCCC2)C(=O)c2cc3cc4cccc(C)c4nc3s2)c1	-13	1.3	7	-5%	-13
Cc1ccc(S(=O)(=O)N(C)CC(=O)OCC(=O)Nc2ccccc2)cc1	.	1.6	-6	-5%	.
NCC1(CC(=O)O)CCCCC1	-4	.	-8	.	-22
COc1ccc(NS(=O)(=O)NC(=O)c2c(C)n(C)c3ccccc23)cc1	.	11	58	.	.
N#CC1(c2c(O)nc3n(c2=O)CCCS3)CCCCC1	8	-0.1	5	-6%	-12
CCc1[nH]nc2c1C1(CCN(C(=O)OCc3ccccc3)CC1)C(C#N)=C(N)O2	-2	28	-5	-14%	-39
Cc1ccc(N(C)C(=O)C2CCN(S(=O)(=O)c3ccc4c(c3)oc(=O)n4C)CC2)cc1	2	-1.4	1	3%	-1
O=C(O/N=C/c1ccc2c(c1)OCO2)c1ccc([N+](=O)[O-])cc1	-1	-0.5	99	?	.

Arranged by heavy-atom count (smallest number first): 3 of the compounds above
SMILES	Arbovirus anti	RecA splice inh	Mtb bLac sens	Mtb H37Rv	YopH inh	others
O=C(CSc1nnc(NC(=O)C2CCC2)s1)Nc1ccccc1F	.	-1.3	0	.	.
Cc1cc(NC(C)c2ccccc2)n2ncc(-c3ccccc3)c2n1 (configuration not stated)	.	17	49	.	.
CSCCOC(=O)COc1ccc(/C=N/NC(=O)c2c(Cl)cnn2C)cc1	.	-2.4	98	28%	.

Not a retest: entries from further up.
SMILES	Arbovirus anti	RecA splice inh	Mtb bLac sens	Mtb H37Rv	YopH inh	others
N#CC1(c2c(O)nc3n(c2=O)CCCS3)CCCCC1	8	-0.1	5	-6%	-12
CCc1[nH]nc2c1C1(CCN(C(=O)OCc3ccccc3)CC1)C(C#N)=C(N)O2	-2	28	-5	-14%	-39
Cc1ccc(N(C)C(=O)C2CCN(S(=O)(=O)c3ccc4c(c3)oc(=O)n4C)CC2)cc1	2	-1.4	1	3%	-1
O=C(O/N=C/c1ccc2c(c1)OCO2)c1ccc([N+](=O)[O-])cc1	-1	-0.5	99	?	.

Fetched by structure from the entries so far, three records:
SMILES	Arbovirus anti	RecA splice inh	Mtb bLac sens	Mtb H37Rv	YopH inh	others
CC(=O)/C(C#N)=C1\NC(=O)C(Cc2ccc(C)c(C)c2)S1 (configuration not stated)	19	.	9	-4%	-22
C=CCOC(=O)c1cc(-c2ccc(/C=C3\C(=O)NC(=O)C(C#N)=C3C)o2)ccc1Cl	12	.	.	.	-9
COc1ccc(C(=O)Nc2ccc(C3(C#N)CCCC3)cc2)cc1OC	.	2.8	6	.	.

The listing continues:
SMILES	Arbovirus anti	RecA splice inh	Mtb bLac sens	Mtb H37Rv	YopH inh	others
CN(C(=O)Oc1cccc2cccnc12)c1ccccc1	-5	-0.5	7	2%	-1	Arbovirus anti repeat=-2
COCc1[nH][nH]c(=O)c1C=Nc1ccc(Cl)cc1	-6	4.5	-11	-8%	-11
O=c1c(-c2ccc(Oc3ccccc3)cc2)[n+]([O-])c2ccccc2n1OCc1ccccn1	-15	-4.0	-12	-2%	1
CN(CC(=O)NC1CCCCCC1)S(=O)(=O)c1ccc(F)cc1	.	1.4	5	.	.
O=C(NC(Cc1ccccc1)C(=O)O)C1CCN(S(=O)(=O)c2cccc(C(F)(F)F)c2)CC1 (configuration not stated)	.	-1.5	0	.	.
Cc1ccc(C)c(NC(=O)c2ncn[nH]2)c1	6	0.7	-17	-3%	-1
COc1ccc(CN2CCSCC2)cc1O	3	-4.4	-14	-15%	-16
CCOC(=O)c1c(C)[nH]c(C)c1C(=O)COC(=O)[C@@H](NC(=O)c1ccccc1OCC)C(C)C	-4	-0.6	3	2%	13
CC(C)(C)NC(=O)C(c1ccccc1)N(C(=O)c1csnn1)C1CC1 (configuration not stated)	1	1.1	-1	2%	-35
CCOC(=O)N/N=C/c1c[nH]c2ccccc12	11	2.5	6	3%	.
O=C(N/N=C1\CC2CC=CC12)c1ccc(Br)cc1 (configuration not stated)	-3	4.6	-2	-7%	.
COc1cc(/C=N/O)cc(Br)c1OCc1cccc(Cl)c1	-43	5.8	62	8%	-34
CN(C)Cc1c(O)ccc2[nH]cnc12	3	-3.4	3	-11%	-37
CCN(CC)S(=O)(=O)c1ccc2c(c1)nc(CCC(=O)OCc1c(C)noc1C)n2C	-3	-2.4	-7	-3%	-38
O=C(NCc1ccncc1)C(=O)NCC1OCCN1S(=O)(=O)c1cc(F)ccc1F (configuration not stated)	.	-0.7	1	.	.
Cc1c(C)c2ccc(OCC(=O)NCCN3CCOCC3)c(C)c2oc1=O	.	-1.9	-6	.	.
O=C(N/N=C/c1ccc(Br)o1)c1cncc(Br)c1	1	-0.8	13	9%	-24
O=C(COc1ccc2ccc(=O)oc2c1)c1ccccc1	.	-0.2	-15	3%	.
Cc1ccc(NC(=O)Nc2ccc(S(N)(=O)=O)cc2)cc1	5	-2.4	-6	-6%	.
COc1ccc(Br)cc1CNC(=O)Nc1cccs1	-6	1.6	4	-2%	-7
CCc1nc(NC(C)(C)C)c2cnn(-c3ccccc3)c2n1	.	2.3	92	46%	.
O=C(O)c1ccc(N=c2oc3cc(O)ccc3cc2C(=O)NCc2ccccc2)cc1	5	-431	5	4%	.
CC(C)(C)C(=O)Cn1c(=O)n(CC2CCCO2)c(=O)c2ccccc21 (configuration not stated)	-2	0.1	3	-1%	-29
CC(=O)c1c(C)[nH]c(C(=O)OCC(=O)Nc2ccccc2Cl)c1C	-6	-1.0	4	3%	.
O=C(Cc1ccccc1)Nc1cccc(N2CCCC2)c1	-9	-0.5	-6	2%	4
Cc1cc2ccccn2c1C(=O)c1cc([N+](=O)[O-])cc([N+](=O)[O-])c1	-10	1.4	-7	5%	.
Cc1ccc2oc(Nc3nc(C)cc(C)n3)nc2c1	0	0.0	66	2%	-24	Arbovirus anti repeat=1

The list is partial; rates above refer to the full screens.
